# KCNQ2 block = KCNQ2 potassium channel inhibitors, primary screen, cell-based, CHO-K1, FluxOR thallium flux, B-score (AID 2156). O88943. 20 min; active compounds read low; only compounds with negative scores are shown here; some inactives read as strong as hits. B-score at 10 µM. 310,000 compounds, 1.1% hits;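 active = fluorescence ratio B-score at most minus 3 library SDs, with starting brightness B-score within 2 library SDs, cut at about -5.5 in these data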
# Target sequence (O88943 whole entry, looked up): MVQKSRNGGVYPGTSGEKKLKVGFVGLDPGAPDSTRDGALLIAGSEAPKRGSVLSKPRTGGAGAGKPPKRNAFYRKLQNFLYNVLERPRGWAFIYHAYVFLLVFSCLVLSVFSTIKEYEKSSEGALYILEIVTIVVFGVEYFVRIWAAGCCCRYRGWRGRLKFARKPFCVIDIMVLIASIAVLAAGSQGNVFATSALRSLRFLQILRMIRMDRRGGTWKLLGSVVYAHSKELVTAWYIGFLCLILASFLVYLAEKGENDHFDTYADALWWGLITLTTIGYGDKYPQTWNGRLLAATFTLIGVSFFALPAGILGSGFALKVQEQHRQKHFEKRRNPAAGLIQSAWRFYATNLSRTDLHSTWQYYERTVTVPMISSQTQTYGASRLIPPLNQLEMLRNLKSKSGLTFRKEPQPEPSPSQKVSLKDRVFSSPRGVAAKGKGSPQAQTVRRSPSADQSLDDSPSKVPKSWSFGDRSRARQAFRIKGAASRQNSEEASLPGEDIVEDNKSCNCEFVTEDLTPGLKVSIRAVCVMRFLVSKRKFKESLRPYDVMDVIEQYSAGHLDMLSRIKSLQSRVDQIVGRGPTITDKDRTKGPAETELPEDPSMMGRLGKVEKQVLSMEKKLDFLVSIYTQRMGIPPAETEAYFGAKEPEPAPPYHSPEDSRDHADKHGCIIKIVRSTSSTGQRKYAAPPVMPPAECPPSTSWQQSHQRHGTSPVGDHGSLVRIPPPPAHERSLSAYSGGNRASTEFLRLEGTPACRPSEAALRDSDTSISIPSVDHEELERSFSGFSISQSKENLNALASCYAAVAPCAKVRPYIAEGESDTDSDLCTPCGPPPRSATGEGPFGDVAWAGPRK
# KCNQ2 block baseline = also measured in KCNQ2 block; calls as there; B-score; measured here: initial fluorescence intensity artifact check;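 brightness before thallium and not channel activity; 0 = typical well and far values either way flag optical interference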
# Starred values were filed as active, the others as inactive; i = inactive. Only part of the results is shown; count on the stated rates, not on these rows.
# Every second line gives: KCNQ2 block | KCNQ2 block baseline
> Cc1cccc(C)c1N1CCN(c2nc(N(C)C)oc(=O)c2C#N)CC1
→ i | 0.36
> CCCCOP(=O)(c1ccc(N(C)C)cc1)C(O)c1cccnc1 (stereo unspecified)
→ i | -0.26
> CC(=O)N1N=C(c2ccc(C)cc2)OC1c1ccc(C(C)C)cc1 (stereo unspecified)
→ i | 1.6
> C/C(=N/NC(=O)CNC(=O)c1cccs1)c1ccco1
→ i | -0.25
> COCCn1nnnc1C(c1ccccc1OC)N1CCN(c2ccccc2F)CC1 (stereo unspecified)
→ i | -0.73
> O=C1NCCSC1c1ccccc1 (stereo unspecified)
→ i | -0.14
> Cc1ccc(O)c(NC(=O)c2cccc(S(=O)(=O)N3CCCCC3)c2)c1
→ i | 0.09
> Fc1ccccc1Nc1ncnc2c1nnn2Cc1ccccc1
→ i | -1.1
> CC(=O)n1c2ccccc2c2c1c1ccccc1n2C
→ i | 0.35
> COC(=O)c1sccc1NC(=O)c1c(-c2ccccc2)noc1C
→ i | 0.54
> N/C(=N\OC(=O)c1cccc2ccccc12)c1ccncc1
→ i | 0.07
> Cc1cccc(N2CCN(C(=O)c3cccc(N4C(=O)C5C6C=CC(C6)C5C4=O)c3)CC2)c1C (stereo unspecified)
→ i | 1.6
> CN=C1SC(CC(=O)Nc2c(C)cccc2C)C(=O)N1/N=C/c1cccs1 (stereo unspecified)
→ i | 0.12
> CSc1nc(Oc2ccc(=O)[nH]n2)nc(N(C)C)n1
→ i | 0.22
> O=C(CSc1ncn[nH]1)N1N=C(c2ccc(Cl)cc2)CC1c1ccco1 (stereo unspecified)
→ i | -1.8
> COC(=O)c1[nH]c2ccccc2c1NC(=O)C(C)N1CCN(C(=O)c2ccco2)CC1 (stereo unspecified)
→ i | 0.03
> O=C(CN1C(=O)NC2(CCCCCC2)C1=O)c1ccc(OC(F)F)cc1OC(F)F
→ i | 2.6
> Cn1c(SCC(=O)Nc2cccc(S(=O)(=O)NC3=NCCCCC3)c2)nnc1-c1ccncc1
→ i | -1.4
> CCCc1c(C(=O)Nc2ccc(F)cc2C)cnn1-c1ccccc1
→ i | -0.94
> COc1ccc(NC(=O)CCN2C(=O)c3ccc([N+](=O)[O-])cc3C2=O)c(OC)c1
→ i | 1.7
> CCN(c1ccccc1C)S(=O)(=O)c1cc2c3c(c1)CCC(=O)N3CCC2
→ i | -0.81
> COCCNC(=S)N1CCN(C(c2ccccc2)c2ccccc2)CC1
→ i | -0.76
> O=C(/C=C/c1ccco1)Nc1nc(-c2ccccn2)cs1
→ i | 0.7
> CN(c1ccccc1)S(=O)(=O)c1cccc(NC(=O)CSc2nnc(N)s2)c1
→ i | 0.2
> COc1ccc(OC)c2c(C)cc(N3CCN(C(=O)c4ccc(F)cc4)CC3)nc12
→ i | -0.33
> COc1ccc(C2CC(C(F)(F)F)n3nc(C(=O)O)cc3N2)cc1OC (stereo unspecified)
→ i | 2.3
> Cc1ccc(-n2ncc3c2CCCC3NC(=O)CCc2cnccn2)cc1C (stereo unspecified)
→ i | -1.2
> O=C1c2ccccc2C(=O)N1CCCOc1ccccc1
→ i | -0.53
> C=C(C)COc1ccc(-c2[nH]ncc2-c2ccc(OC)cc2)c(O)c1
→ i | 0.41
> COc1ccc(CNC(=O)CCc2nc(-c3ccccc3F)no2)c(OC)c1
→ i | 2
> Cc1cccc(OCC(=O)NNC(=O)CCCCC(=O)NNC(=O)COc2cccc(C)c2)c1
→ i | -0.74
> COC(=O)Cn1c(=O)c2c(nc3n2CC(C)CN3CCc2ccccc2)n(C)c1=O (stereo unspecified)
→ i | -1.9
> CCc1nc2sc3ccccc3c(=O)c2c(=O)n1Cc1ccc(OC)cc1
→ i | 0.34
> CCn1c(SCC(=O)Nc2cc(C)c(Cl)cc2OC)nnc1-c1ccco1
→ i | -0.9
> CC(C)CN(C(=O)COC(=O)CCc1nc2ccccc2s1)c1c(N)n(Cc2ccccc2)c(=O)[nH]c1=O
→ i | -0.26
> COc1cccc(-c2nc(CS(=O)(=O)CC(=O)Nc3ccccc3Cl)c(C)o2)c1
→ i | -0.24
> COc1ccccc1N1CCN(C(=O)Cn2ncc3c([nH]c4ccccc43)c2=O)CC1
→ i | 0.23
> Cn1c2c(c(=O)n(C)c1=O)CN(Cc1ccco1)CN2
→ i | 1.2
> O=C(NCc1ccccc1F)C1CCCN1C(=O)NCc1ccccc1 (stereo unspecified)
→ i | 0.16
> CC1=NNC(=O)C1C(c1ccccc1)C(C#N)C#N (stereo unspecified)
→ i | 0.79
> COc1cccc(/C=N/Nc2ccc(C(=O)O)cc2)c1O
→ i | 1.6
> CCCSCCCNC(=O)Cn1nc(CC)n2c(cc3c(OC)cccc32)c1=O
→ i | 1.3
> CCCCCC(=O)Nc1ccc(Cc2ccncc2)cc1
→ i | 0.03
> COC(=O)c1ccc(CSc2n[nH]c(=S)s2)o1
→ i | 0.12
> CCNS(=O)(=O)c1ccc(CCC(=O)NCCc2ccc(OC)cc2)cc1
→ i | 1.9
> Oc1ccc(/C=N/n2cnn(Cc3ccccc3Cl)c2=S)c(O)c1
→ i | -0.09
> COc1ccc(/C=C/C(=O)NC(=S)NNC(=O)c2cccnc2)cc1OC
→ i | -0.43
> COc1cccc(-c2cc(C(=O)N3CCN(Cc4ccccc4)CC3)no2)c1
→ i | -1.3
> CC1(C(=O)NCc2cccnc2)CCC(=O)N1CCc1ccccc1 (stereo unspecified)
→ i | -0.34
> CCC(C)(C)NC(=O)C(c1ccc(C)o1)N(Cc1ccc2c(c1)OCO2)C(=O)c1snc(C(N)=O)c1N (stereo unspecified)
→ i | 0.02
> COc1ccc(N2CCN(C(=O)C3CCN(S(=O)(=O)c4ccc(C)cc4)CC3)CC2)cc1
→ i | 0.03
> CSc1ncccc1C(=O)OCC(=O)N(C)C1CCS(=O)(=O)C1 (stereo unspecified)
→ i | -0.94
> O=[N+]([O-])c1cccc(C(=S)N2CCN(c3ccc(F)cc3)CC2)c1
→ i | -1.3
> CC(=O)Nc1ccc(S(=O)(=O)Nc2nc3ccccc3nc2Cl)cc1
→ i | -1.9
> CCOCC(=O)Nc1c(C(=O)OCC)oc2ccccc12
→ i | 1.7
> Cc1c(-c2ccc(Cl)cc2)[n+](=O)c(-c2ccccc2)cn1[O-]
→ i | 0.88
> COc1ccc(C(=O)C2CCN(S(=O)(=O)c3ccc4c(c3)OCCO4)CC2)cc1
→ i | -0.5
> Nc1ccn(-c2ccccc2)c(=O)c1
→ i | -0.07
> Cc1cc(C)n(-c2ccc3nncn3n2)n1
→ i | -2.3
> CC1=NNC(=O)c2ccccc2O1
→ i | 1.4

# New compounds follow
# Every second line gives: KCNQ2 block | KCNQ2 block baseline
> COc1cc(-c2csc(NC3CCCCC3)n2)cc(OC)c1OC
→ i | -0.27
> CCCCCC/C(=N/O)c1ccccn1
→ i | -1.7
> COCCCn1c(SCC(=O)NC2CCCCC2)nc2ccccc2c1=O
→ i | -1.8
> Cc1csc(N2CCN(c3cc4c(cc3Cl)nc(-c3ccncc3)n4CCCN3CCCC3)CC2)n1
→ i | -4
> CC(Oc1ccccc1)C(=O)OCC(=O)NC(=O)NCc1ccco1 (stereo unspecified)
→ i | -1.2
> COc1cccc(C2C3=C(CC(C)(C)CC3=O)OC(N)=C2[N+](=O)[O-])c1 (stereo unspecified)
→ i | 1.5
> O=C(CN1CCC(C(=O)c2ccc3c(c2)OCCO3)CC1)Nc1ccccc1C(F)(F)F
→ i | -1.4
> Cn1ncc(Cl)c1C(=O)N1CCN(C23CC4CC(CC(C4)C2)C3)CC1
→ i | -0.25
> O=C(Cc1cccs1)NCc1ccccc1Br
→ i | 1.8
> O=C(Nc1c2c(nn1-c1ccccc1)CS(=O)(=O)C2)c1cccs1
→ i | 0.91
> CCOC(=O)C1CCN(Cc2cccc(OCc3ccccc3)c2)CC1
→ i | -0.73
> Cc1nn(C)cc1N1C(=O)c2cccc3c(N)ccc(c23)C1=O
→ i | 100
> Cc1ccccc1-n1nc2c(c1NC(=O)COc1ccc(Cl)cc1)CS(=O)C2 (stereo unspecified)
→ i | 0.75
> CCCC(=O)Nc1cc2c3c(c1)C(C)C(=O)N3CCC2 (stereo unspecified)
→ i | -0.67
> COc1ccc(NC(=O)NN2CCN(C)CC2)c(OC)c1
→ i | 1.8
> CN(C)S(=O)(=O)N1CCc2ccccc21
→ i | -1.9
> CCN(CC(=O)Nc1cc(C)c(Cl)cc1OC)CC(=O)NC1CCS(=O)(=O)C1 (stereo unspecified)
→ i | 0.99
> CCS(=O)(=O)c1nc(S(=O)(=O)c2ccc(Cl)cc2)c(N2CCCC2)s1
→ i | 0.4
> COc1cc(C(=S)N2CCOCC2)cc(OC)c1OC(=O)c1cc([N+](=O)[O-])c(C)c([N+](=O)[O-])c1
→ i | 0.51
> Cc1cc(Sc2nccn2C)ncc1[N+](=O)[O-]
→ i | 0.13
> O=[N+]([O-])c1cccnc1Oc1ccc(C2SCCS2)cc1
→ i | -0.14
> CC(Sc1nnc(Cc2cccs2)n1C1CCCCC1)C(=O)N1CCc2ccccc21 (stereo unspecified)
→ i | -0.02
> CC(=O)Oc1ccc2oc(=O)c3c(c2c1)CCCN3C(=O)CN1CCOCC1
→ i | 1.6
> COc1ccc2oc(C(=O)N3CCc4ccccc43)c(C)c2c1
→ i | -0.24
> O=C(Nc1ccc(CN2CCOCC2)cc1)c1cc2ccccc2o1
→ i | 2.5
> CN(Cc1ccccc1)C(=O)COc1ccc(N(C)S(=O)(=O)c2ccc(F)cc2)cc1
→ i | -0.47
> O=S(=O)(/N=C(/Nc1cccc2ccccc12)c1ccc(F)cc1)c1ccccc1
→ i | 1
> CN1CCc2c(sc(NC(=O)c3ccc4ccccc4c3)c2C(N)=O)C1
→ i | 3.9
> COC(=O)c1ccc(OC)c(CSc2nnc(-c3ccc(C(C)(C)C)cc3)o2)c1
→ i | 0.61
> C=C(C)COc1ccc(-c2[nH]ncc2Oc2cccc(OC)c2)c(O)c1
→ i | -1.1
> COc1cc(/C=C2\SC(=O)N(CC(=O)Nc3ccccc3F)C2=O)cc(Cl)c1O
→ i | -0.21
> CNC(=O)c1c(NC(=O)c2cccc(N3C(=O)CCC3=O)c2)sc2c1CCC2
→ i | 1
> O=C(COC(=O)c1ccc(Cl)cc1[N+](=O)[O-])NNC(=O)c1cccs1
→ i | 0.72
> CC(C)(C)NC(=O)COC(=O)c1ccccc1Nc1ccc(SC(F)F)cc1
→ i | 0.38
> O=C(NCC1CCCO1)c1onc(CSc2ccc(F)c(F)c2)c1C(=O)O (stereo unspecified)
→ i | -0.27
> CS(=O)(=O)N(CC(=O)NCCSC1CCCCC1)c1ccccc1
→ i | -0.24
> Cc1ccc(CNC(=O)c2ccc(NS(=O)(=O)c3c(C)noc3C)cc2)cc1
→ i | -3.3
> COc1ccc(NC(=O)C2COc3ccccc3O2)cc1 (stereo unspecified)
→ i | -1.9
> O=C(NCCCN1CCOCC1)c1ccc(CNS(=O)(=O)c2ccc(F)cc2)cc1
→ i | 1.5
> O=C(c1ccco1)N1CCCC(c2ccccc2)C1 (stereo unspecified)
→ i | -0.02
> COc1ccccc1CNC(=O)C1CC(=O)N(c2ccc(C)c(C)c2)C1 (stereo unspecified)
→ i | 1.3
> C/C(CCC(C)C)=N\NC(=S)NCc1ccccc1
→ i | -0.21
> O=C1Nc2c(c(=O)[nH]c(=O)n2-c2ccc(F)cc2)C1(NS(=O)(=O)c1ccccc1)C(F)(F)F (stereo unspecified)
→ i | -0.01
> CCO[C@@H]1OC(C(=O)O)=C[C@H](c2cn(C(C)=O)c3ccccc23)[C@H]1CCCO
→ i | 1.2
> c1ccc(Sc2ncnc3c2oc2ccccc23)cc1
→ i | 0.38
> O=C(NCc1ccc2[nH]c3c(c2c1)CCCC3)c1ccc(S(=O)(=O)N2CCOCC2)cc1
→ i | -0.91
> CCN(CC(=O)NCCCn1ccnc1)S(=O)(=O)c1ccc(C)cc1
→ i | 1.4
> COc1ccc(OC)c(NC(=O)C2CCCN(S(=O)(=O)c3c(C)nn(C)c3C)C2)c1 (stereo unspecified)
→ i | -1.9
> CC(C)C(=O)Nc1nnc(NC(=S)Nc2ccccc2)s1
→ i | -0.75
> O=C(Cn1ncc2c3ccccc3n(Cc3ccc(Cl)cc3)c2c1=O)NCCCN1CCCC1=O
→ i | -1.2
> C/C(=N\Nc1ccccn1)c1ccc(C(C)C)cc1
→ i | 3
> CCCC(C)NC(=O)Cc1ccccc1[N+](=O)[O-] (stereo unspecified)
→ i | 0.36
> Cc1ccc(-c2cc(C(=O)N/N=C/C(Br)=C/c3ccccc3)n[nH]2)o1
→ i | -4.8
> CCOc1cc(CNc2ccc(O)cc2)cc(Br)c1OCc1ccccc1F
→ i | 0.95
> COc1ccc(CN(C(=O)c2ccc(-c3ccccc3)[nH]2)C(C(=O)NC(C)(C)C)c2ccncc2)cc1 (stereo unspecified)
→ i | 0.09

# Ordered by molar mass (largest number first): five of the compounds above.
# Every second line gives: KCNQ2 block | KCNQ2 block baseline
> O=C(NCc1ccc2[nH]c3c(c2c1)CCCC3)c1ccc(S(=O)(=O)N2CCOCC2)cc1
→ i | -0.91
> CCOc1cc(CNc2ccc(O)cc2)cc(Br)c1OCc1ccccc1F
→ i | 0.95
> CCO[C@@H]1OC(C(=O)O)=C[C@H](c2cn(C(C)=O)c3ccccc23)[C@H]1CCCO
→ i | 1.2
> CCN(CC(=O)NCCCn1ccnc1)S(=O)(=O)c1ccc(C)cc1
→ i | 1.4
> C/C(CCC(C)C)=N\NC(=S)NCc1ccccc1
→ i | -0.21

# Compound profiles, as listed above. Screens in order: KCNQ2 block	KCNQ2 block baseline
# CC(Sc1nnc(Cc2cccs2)n1C1CCCCC1)C(=O)N1CCc2ccccc21 (stereo unspecified) reads i	-0.02
# COC(=O)c1sccc1NC(=O)c1c(-c2ccccc2)noc1C reads i	0.54
# COCCNC(=S)N1CCN(C(c2ccccc2)c2ccccc2)CC1 reads i	-0.76
# CCCCOP(=O)(c1ccc(N(C)C)cc1)C(O)c1cccnc1 (stereo unspecified) reads i	-0.26
# COC(=O)c1ccc(CSc2n[nH]c(=S)s2)o1 reads i	0.12

# Compound activity deposited in PubChem BioAssay by Johns Hopkins Ion Channel Center.
